PV pol inh – inhibitors of poliovirus RNA polymerase binding and polymerization. P03300. poliovirus polymerase elongation, fluorescence polarization; active compounds read low. % elongation, % (compound at 16.7 µg/mL). 150,000 compounds, 0.66% hits. AID 588519; in the data active = % elongation below about 90%; also: some results filed as inactive read as strong as hits
Target sequence (P03300 1749-2209 limits assumed): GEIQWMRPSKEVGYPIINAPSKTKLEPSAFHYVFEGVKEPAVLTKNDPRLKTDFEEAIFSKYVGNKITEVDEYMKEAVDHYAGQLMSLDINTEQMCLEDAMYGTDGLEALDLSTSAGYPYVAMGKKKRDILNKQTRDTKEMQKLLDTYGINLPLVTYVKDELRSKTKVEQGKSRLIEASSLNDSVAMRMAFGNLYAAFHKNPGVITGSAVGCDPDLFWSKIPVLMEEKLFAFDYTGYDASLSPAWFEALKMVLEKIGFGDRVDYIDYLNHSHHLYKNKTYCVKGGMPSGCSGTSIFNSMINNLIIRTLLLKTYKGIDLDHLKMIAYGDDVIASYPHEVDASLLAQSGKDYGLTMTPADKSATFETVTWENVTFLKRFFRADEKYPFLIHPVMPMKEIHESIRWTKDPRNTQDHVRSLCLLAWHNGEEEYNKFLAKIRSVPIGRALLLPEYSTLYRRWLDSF
PV pol inh intensity – recorded beside PV pol inh, whose call it bears; % elongation; measured here: total intensity read-out; formula for this scale not given here;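 total fluorescence in place of polarization; lower means less elongation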
Starred values were filed as active, the others as inactive.

SMILES	PV pol inh	PV pol inh intensity
CCn1cc(C(=O)NCCc2ccc(C)cc2)c(=O)c2cc(S(=O)(=O)N3CCC(C)CC3)ccc21	104	106
C[C@@H](NC(=O)CN(c1ccccc1)S(=O)(=O)N(C)C)c1ccccc1	105	110
COCCNC(=O)c1nn(-c2ccc(C)cc2)c(=O)c2c1c1ccccc1n2C	105	105
Cc1ccc(NC(=O)Cn2c(=O)ccc3cc(S(=O)(=O)N4CCC(C)CC4)ccc32)cc1Cl	102	108
COc1ccccc1CNc1nc2nc(C)c(Cl)c(C)n2n1	114	107
O=S(=O)(c1ccc(Cl)cc1)c1nnn2c1nc(NC1CCCCC1)c1sccc12	108	112
COc1ccc(CCNC(=O)c2c(O)nc3c(C)cccn3c2=O)cc1OC	106	109
CCn1cc(C(=O)NCc2ccc(F)cc2)c(=O)c2cc(S(=O)(=O)N(C)C)ccc21	103	104
COc1ccccc1NC(=O)C1=C(C)Nc2ncnn2C1c1ccccn1 (centres undefined)	105	104
COc1ccc(CCNc2ncnc3c2cnn3-c2cccc(Cl)c2)cc1	102	108
CC(C)CC1N=C2c3ccccc3N=C(SCC(=O)NCCc3ccc(Cl)cc3)N2C1=O (centres undefined)	105	110
COc1ccc(CCNC(=O)c2ccc3c(c2)N(Cc2c(F)cccc2Cl)C(=O)CS3)cc1OC	101	104
COc1ccccc1C1C=C(c2ccc(Cl)cc2)Nc2nc(-c3ccc(Cl)cc3)nn21 (centres undefined)	110	114
O=C(NCc1ccc(F)cc1)c1ccc(CS(=O)(=O)c2ccc(Cl)cc2)o1	98	97
Cc1ccc(NC(=O)Cn2cc(C(=O)c3ccco3)c3ccccc32)cc1	113	113
Clc1ccccc1CSc1nnc(C2CCNCC2)o1	106	106
COc1ccc(OC)c(CCNC(=O)c2cnn(-c3ccccc3)c2-n2cccc2)c1	100	105
Cc1cccc(N2CCN(C(=O)C3CCN(c4ncnc5c4nc4n5CCCCC4)CC3)CC2C)c1 (centres undefined)	104	97
Cc1cccc(OCC(=O)Nc2nc3c(s2)CC(C(C)(C)C)CC3)c1C (centres undefined)	104	97
Cc1cccc(NC(=O)CSc2nnc(N)s2)c1	109	100
COc1ccc(Cn2cc(C(=O)c3ccc(C)c(C)c3)c(=O)c3ccccc32)cc1	113	110
O=C(Nc1nnc(N2CCCCCC2)s1)Nc1cc(F)ccc1F	104	98
COc1ccc(C2C=C(c3ccccc3)Nc3nc(NS(=O)(=O)c4ccc(C)cc4)nn32)cc1 (centres undefined)	100	125
Cc1c(CC(=O)N2CCCCC2)c(=O)oc2cc3occ(C(C)(C)C)c3cc12	107	108
COc1ccc(CCNc2nccn(-c3ccc(C)c(C)c3)c2=O)cc1OC	114	118
COc1ccc(CCNC(=O)CCn2c(=O)c3ccccc3n(Cc3ccc(Cl)cc3)c2=O)cc1OC	101	98
CC1=C(c2ccc(C)c(C)c2)S(=O)(=O)N=C1N1CCC(C(=O)NCc2ccc(Cl)cc2)CC1	114	115
CC(CC(=O)NCc1ccc(Cl)cc1Cl)CC1=NS(=O)(=O)c2ccccc2N1 (centres undefined)	99	98
CCC1CCCCN1CCCNC(=O)c1cn(C)c2ccc(S(=O)(=O)N(C)C3CCCCC3)cc2c1=O (centres undefined)	30*	48*
CC(C)C1N=C2c3ccccc3N=C(SCC(=O)NCc3ccccc3Cl)N2C1=O (centres undefined)	96	105
Cc1ccc(CNC(=O)CSc2ncc(S(=O)(=O)c3ccc(C)c(Cl)c3)c(=O)[nH]2)cc1	104	106
COc1ccccc1CNC(=O)Cn1c(=O)oc2cc(S(=O)(=O)N3CCCC3)ccc21	103	105
COc1ccc(-c2cn3c(n2)sc2cc(C(=O)Nc4c(C)cccc4C)ccc23)cc1	109	111
Cc1ccc(C(=O)Nc2cc(-c3nc4cc(Cl)ccc4o3)ccc2C)c(C)c1	106	112
COc1ccc(Cl)cc1NC(=O)c1ccc2c(c1)CCCN2S(C)(=O)=O	109	112
COc1ccc(OC)c(CNC(=O)CSc2c3c(nc4cc(Cl)ccc24)CCCC3)c1	74*	74*
CCOc1ccc(C2c3[nH]c4ccccc4c3CCN2C(=O)CCc2ccccc2)cc1 (centres undefined)	122	128
CCOC(=O)c1c(NC(=O)c2cc3ccccc3c(=O)o2)sc2c1CCC(C)C2 (centres undefined)	107	104
Cc1cccc(-c2c3c(=O)n(C)c(=O)n(C)c3cn2-c2cc(N)c(Cl)cc2Cl)c1	110	101
Cc1ccccc1Oc1nc2ccccn2c(=O)c1/C=C(\C#N)c1nc2ccccc2[nH]1	107	117
Cc1sc(-c2cc3ccccc3oc2=O)nc1-c1ccc(Cl)c(Cl)c1	99	97
COc1cc(-c2nc3ccc(Cl)cn3c2Nc2ccc3c(c2)OCCO3)ccc1O	108	110
COc1ccc(N2CCN(C(=O)CCc3c(C)nn(-c4ccc(N5CCCC5)nn4)c3C)CC2)cc1	103	107
CCN(CC)S(=O)(=O)c1ccc2c(c1)N(CC(=O)Nc1cccc(C#N)c1)C(=O)CO2	105	109
Cc1cccc(-n2c(CC3C(=O)Nc4ccc(C)cc43)nc3ccccc3c2=O)c1 (centres undefined)	107	105
COc1ccc(C2CC(=O)c3c([nH]c(C(=O)OC4CCCCCC4)c3C)C2)cc1OC (centres undefined)	110	110
CC(=O)N1CCCc2cc(S(=O)(=O)Nc3ccc(Cl)cc3F)ccc21	111	113
COc1ccccc1NC(=O)C1=C(C)Nc2nc(SCC(=O)c3ccc(C)cc3)nn2C1c1ccccc1C (centres undefined)	112	114
O=C(COc1ccccc1F)Nc1ccc(-c2nc3ccccc3s2)cc1	101	101
CCOc1ccc(CNC(=O)c2cc3ccccn3n2)cc1OC	98	105
CCOc1ccc(NC(=O)c2cc3c(=O)n(Cc4cccs4)ccc3nc2C)cc1	102	107
O=c1c(N2CCc3ccccc3C2)csc2ccccc12	106	107
Cc1ccccc1OCCCn1c(CCNC(=O)C2CCCCC2)nc2ccccc21	106	110
CCc1ccc(-n2c(=O)c3c4c(sc3n(Cc3ccc(F)cc3)c2=O)CCCC4)cc1	101	102
CCCn1c(CCC(=O)Nc2cc(C(=O)OC)cc(C(=O)OC)c2)nc2cccnc21	105	106
Cc1c(CCC(=O)NCCc2ccccc2)c(=O)oc2cc(O)ccc12	104	107

Four entries from above, reformatted:
CCOc1ccc(CNC(=O)c2cc3ccccn3n2)cc1OC
- PV pol inh: 98
- PV pol inh intensity: 105

CCOc1ccc(NC(=O)c2cc3c(=O)n(Cc4cccs4)ccc3nc2C)cc1
- PV pol inh: 102
- PV pol inh intensity: 107

O=c1c(N2CCc3ccccc3C2)csc2ccccc12
- PV pol inh: 106
- PV pol inh intensity: 107

Cc1ccccc1OCCCn1c(CCNC(=O)C2CCCCC2)nc2ccccc21
- PV pol inh: 106
- PV pol inh intensity: 110

(further entries)
smiles | PV pol inh | PV pol inh intensity
O=C(CSc1ncc(-c2ccccc2)[nH]1)Nc1cccc(C(F)(F)F)c1 | 104 | 106
CCC(C)OC(=O)/C(C#N)=C\c1ccc(-c2cccc(C(F)(F)F)c2)o1 (centres undefined) | 104 | 106
CCc1ccc2nc(N3CCN(C(=O)C4CC4)CC3)sc2c1 | 111 | 117
COc1ccc(S(=O)(=O)N2CCC(n3c(C)nc4cccnc43)CC2)cc1Cl | 118 | 107
Cc1c(Cl)cccc1NC(=O)CSc1cc(-c2ccccc2)ncn1 | 103 | 105
CCCCN(CC)CCCNC(=O)c1cc2c(=O)oc3ccc(C)cc3c2s1 | 107 | 107
O=C(Nc1ccc(Br)cc1F)C1CCN(c2nc3ccccc3[nH]2)CC1 | 102 | 107
O=C(Nc1ccccc1C(=O)OCc1cc(=O)n2nc(C3CC3)sc2n1)c1ccc(Cl)cc1 | 105 | 106
CCc1ccc2c(c1)c(=O)c(S(=O)(=O)c1ccc(F)cc1)cn2CC(=O)Nc1ccccc1OC | 106 | 112
CCc1cccc(-n2c(C)nc3c(cnn3-c3ccc(Cl)cc3)c2=O)c1 | 106 | 107
CCOC(=O)C1=C(CN2CCCCC2)NC(=O)NC1c1cc(C)ccc1C (centres undefined) | 111 | 113
COc1cccc(CN(C(=O)c2ccc(C(C)(C)C)cc2)C2CCS(=O)(=O)C2)c1 (centres undefined) | 109 | 113
Cc1cc(C)c(S(=O)(=O)N2CCC(N3CCN(Cc4ccc(F)cc4)C(=O)C3=O)CC2)c(C)c1 | 108 | 109
CCn1cc(C(=O)NCCCN(CC(C)C)CC(C)C)c(=O)c2cc(S(=O)(=O)N(C)C3CCCCC3)ccc21 | 107 | 112
COc1ccc(-c2noc(Cn3c(=O)c4ccccc4n(CC(=O)Nc4cccc(C(F)(F)F)c4)c3=O)n2)cc1 | 112 | 106
COc1ccc(C)cc1NC(=O)C1CCN(S(=O)(=O)c2ccc3[nH]c4c(c3c2)CCCCC4)CC1 | 109 | 112
COc1cccc(CNC(=O)c2ccc(-c3nc(CSc4ccccc4)c(C)o3)cc2)c1 | 109 | 105
COc1ccc(CCNC(=O)c2ccc3c(c2)N(Cc2ccccc2)C(=O)c2ccccc2S3=O)cc1OC (centres undefined) | -15* | 21*
COc1ccc(-c2csc(-c3c(N)c(C(=O)c4ccccc4)n4ccccc34)n2)cc1OC | 106 | 111
COc1ccc(NC(=O)c2cnn(-c3ccc(F)cc3F)c2C2CCN(C(=O)OC(C)(C)C)CC2)cc1Cl | 109 | 108
Cn1c(=O)c(=O)n(C)c2cc(S(=O)(=O)CCC(=O)Nc3cccc(C(F)(F)F)c3)ccc21 | 104 | 104
O=C(Nc1cccc(Cl)c1Cl)c1cc(S(=O)(=O)NCCc2ccccc2)ccc1F | 102 | 108
COc1ccc(NCc2ccccc2-c2nnc(-c3ccccc3)o2)cc1Cl | 100 | 101
Cc1noc(Cn2c(=O)c3cc4c(cc3n(CC(=O)Nc3ccccc3Br)c2=O)OCO4)n1 | 104 | 107
CSc1ccc(Nc2nn(-c3ccc(OC(F)(F)F)cc3)nc2C(C)=O)cc1 | 108 | 113
CCOc1cccc2sc(N3CCN(C(=O)c4ccco4)CC3)nc12 | 108 | 105
COc1ccc(Cl)cc1NC(=O)CSc1cn(CC(=O)N2CCCC2)c2ccccc12 | 126 | 122
CN(C(=O)CSc1nc2ccc(NC(=O)c3ccc(F)cc3)cc2s1)c1ccccc1 | 109 | 112
Cc1cccc(CCNC(=O)CCS(=O)(=O)c2cc3c(cc2Cl)NC(=O)CO3)c1 | 95 | 103
Cc1sc(-c2cc3ccccc3oc2=O)nc1-c1ccc(Cl)cc1 | 105 | 107

Random excerpt: two records from the list.
smiles | PV pol inh | PV pol inh intensity
COc1ccc(OC)c(CCNC(=O)c2cnn(-c3ccccc3)c2-n2cccc2)c1 | 100 | 105
COc1ccc(C)cc1NC(=O)C1CCN(S(=O)(=O)c2ccc3[nH]c4c(c3c2)CCCCC4)CC1 | 109 | 112

Going on with the list:
smiles | PV pol inh | PV pol inh intensity
Cc1ccc(CNC(=O)c2nc(S(=O)(=O)Cc3ccc(C)cc3)ncc2Cl)cc1 | 108 | 107
Cc1oc2ncnc(N3CCOCC3)c2c1C(=O)Nc1ccc(Br)cc1F | 103 | 102
Cc1ccccc1NCc1cccn1-c1nnc(N2CCOCC2)s1 | 117 | 106
COc1ccc(N2CCN(C(c3ccccc3)c3nnc(-c4ccccc4Cl)o3)CC2)cc1 (centres undefined) | 108 | 108
COc1cccc(-c2cnc(NCc3ccccc3Cl)n2C)c1 | 96 | 99
CCc1ccc(S(=O)(=O)c2nnn(-c3ccc(F)cc3)c2N)cc1 | 107 | 113
Cc1ccc(S(=O)(=O)C(CNC(=O)C(=O)NCCc2ccc(F)cc2)c2cccs2)cc1 (centres undefined) | 106 | 108
COc1ccc(CNC(=O)Cn2c(=O)cc(-c3ccccc3)c3c(C)nn(C)c32)cc1 | 101 | 106
COc1ccc2nc(SCC(=O)c3c(C)[nH]c4ccccc34)nc(C)c2c1 | 102 | 107
Cc1nn(-c2ccc3nncn3n2)c(C)c1CCC(=O)Nc1ccc(OC(F)(F)F)cc1 | 110 | 111
Cc1cc(NC(=O)c2ccc(-c3ccc(Br)cc3)o2)cc(-c2nc3ncccc3o2)c1O | 107 | 110
COc1ccc(OC)c(/C=C(\C#N)c2nc3ccccc3c(=O)[nH]2)c1 | 101 | 129
CCCc1nnc(NC(=O)Nc2ccccc2Cl)s1 | 105 | 105
CCOc1ccc(C2CC(c3c(O)n(C4CCCCC4)c(=O)[nH]c3=O)=Nc3ccccc3S2)cc1 (centres undefined) | 109 | 115
Cc1cc(C)cc(NC(=O)Cn2c(=O)n(CCC(C)C)c(=O)c3cccnc32)c1 | 105 | 105
CCOc1ccc(CCNC(=O)Cn2nc(CC)n3c(cc4c(OC)cccc43)c2=O)cc1OCC | 105 | 103
COc1ccc(CCNC(=O)c2nc(SCc3ccc(C)cc3)ncc2Cl)cc1OC | 111 | 107
CC(=O)N1c2c(cc(Br)cc2S(=O)(=O)N2CCN(c3ccccc3)CC2)CC1C (centres undefined) | 103 | 104
COc1ccccc1N1CCN(C(=O)c2c(C)oc3ncn(C)c(=O)c23)CC1 | 113 | 113
COc1ccc(Cl)cc1NC(=O)CCC(=O)c1ccc(C)cc1 | 109 | 110
CN(C(=O)Nc1cn(C)c(=O)c2ccccc12)c1ccccc1 | 99 | 95
CSc1ncc(Cl)c(C(=O)N(Cc2ccccc2Cl)C2CCS(=O)(=O)C2)n1 (centres undefined) | 121 | 109
COc1cccc(CSc2nc(-c3ccccc3F)nc3c2Cc2c(CO)cnc(C)c2O3)c1 | 110 | 112
Cc1ccc2c(C)c(C(=O)N3CCC(c4nc5ccccc5s4)CC3)oc2c1C | 109 | 106
CCOc1ccccc1NC(=O)C1=C(C)Nc2ncnn2C1c1ccccn1 (centres undefined) | 107 | 113
Cc1ccc(CNS(=O)(=O)c2cnc(N)nc2)cc1 | 117 | 113
CC(=O)c1cccc(NC(=O)c2sc3nc4c(cc3c2N)CCCC4)c1 | 114 | 114
CCOC(=O)c1ccc(NC(=O)N2CCOc3ccccc32)cc1 | 112 | 114
O=C(NCc1ccccc1Cl)c1cc2cccc3c2n1CCS3 | 102 | 97

Compound activity from PubChem.

Not all compounds are listed, so the mix of outcomes need not match the whole.
